# Bioassay records (PubChem)
# Polio RdRp inh: poliovirus RNA polymerase inhibition. P03300. AID 588519. poliovirus polymerase elongation, fluorescence polarization; hits give low values. 0.66% of 150,000 active. % elongation, % (compound at 16.7 µg/mL); in the data active = % elongation below about 90%; also: some results filed as inactive read as strong as hits
# Target sequence (P03300 1749-2209 limits assumed): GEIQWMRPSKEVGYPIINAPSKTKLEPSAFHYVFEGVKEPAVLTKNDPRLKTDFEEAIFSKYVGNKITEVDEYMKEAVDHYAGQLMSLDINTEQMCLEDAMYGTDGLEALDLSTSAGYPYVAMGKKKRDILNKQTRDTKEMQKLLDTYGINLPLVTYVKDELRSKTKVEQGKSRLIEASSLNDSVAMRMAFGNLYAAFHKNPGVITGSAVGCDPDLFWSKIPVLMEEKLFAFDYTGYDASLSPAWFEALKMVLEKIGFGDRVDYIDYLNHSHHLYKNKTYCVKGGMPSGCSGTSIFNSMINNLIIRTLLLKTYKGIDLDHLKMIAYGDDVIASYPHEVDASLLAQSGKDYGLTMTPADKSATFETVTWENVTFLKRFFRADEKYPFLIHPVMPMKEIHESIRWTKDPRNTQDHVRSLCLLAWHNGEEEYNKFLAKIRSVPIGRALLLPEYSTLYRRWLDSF
# Polio RdRp inh intensity: second read-out of Polio RdRp inh, no call of its own (marks repeat the call); % elongation; measured here: total intensity read-out; formula for this scale not given here;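 total fluorescence in place of polarization; lower means less elongation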
# * marks the source's active call; other numbers are inactive results. Some of the compounds tested (hit frequency here may not be typical).
SMILES,Polio RdRp inh,Polio RdRp inh intensity
Cc1ccc(N2CC(NC(=O)c3cccs3)CC2=O)cc1 (stereo not given),113,114
COc1ccc(Cn2c(=O)c3oc4ccccc4c3n(Cc3cccc(F)c3)c2=O)cc1,101,105
CCc1ccc(NC(=O)CN(Cc2ccccc2)S(=O)(=O)c2ccc3nc(C)sc3c2)cc1,107,105
Cc1nc(-c2ccc(S(=O)(=O)Nc3ccc(OC(F)(F)F)cc3)cc2)co1,111,112
Cc1ccc(C)c(N2C(=O)N(Cc3c(F)cccc3Cl)c3ccccc3S2(=O)=O)c1,110,116
CCN(Cc1ccccc1)C(=O)C1CCN(c2ncnc3c2nc2n3CCCCC2)CC1,108,105
Cc1nc2c(C(=O)NCCc3ccccc3)cnn2c(C)c1Cc1c(F)cccc1Cl,111,110
Cc1cc(C)cc(OCC(=O)NC(Cc2c[nH]c3ccccc23)C(=O)O)c1 (stereo not given),103,105
Cc1ccc(S(=O)(=O)CCC(=O)Nc2ccc(OC(F)(F)F)cc2)cc1,105,105
CCn1nc(C)c2c(-c3ccccc3)cc(=O)n(C(C)C(=O)NCCc3ccc(OC)c(OC)c3)c21 (stereo not given),105,101
COc1ccc(C)cc1NC(=O)C1CCCN(S(=O)(=O)c2ccc3c(c2)CCCN3C(C)=O)C1 (stereo not given),107,103
COCCCNC(=O)c1cn(CC(C)C)c(=O)c2c1c1ccccc1n2C,106,105
CCc1ccccc1NS(=O)(=O)c1cc(Br)cc2c1N(C(=O)C1CC1)CC2,104,106
CCc1ccc2oc(-c3cccc(NC(=O)c4cc5ccccc5o4)c3)nc2c1,105,107
COc1ccc(-c2cn3c(n2)sc2cc(C(=O)Nc4cccc(SC)c4)ccc23)cc1,105,108
CCOC(=O)Cn1c(=O)n(CC2CCCO2)c2nc(-c3ccccc3Cl)nc(C(N)=O)c21 (stereo not given),106,112
COc1ccccc1C(=O)NC1(C(F)(F)F)C(=O)Nc2c1c(=O)[nH]c(=O)n2-c1ccccc1 (stereo not given),104,108
CCCS(=O)(=O)c1nc(S(=O)(=O)c2ccc(C)cc2)c(NCc2ccccc2)s1,104,103
O=c1c2sc3ccccc3c2n(Cc2cccc(C(F)(F)F)c2)c(=O)n1Cc1ccco1,105,107
COc1ccc(CN(C)c2ccc(-c3nc(-c4ccccc4)no3)cc2[N+](=O)[O-])cc1,115,116
COc1ccc(C2c3c(-c4ccccc4)n[nH]c3C(=O)N2c2ccc(C(=O)O)cc2)c(OC)c1 (stereo not given),111,107
COc1ccccc1CNC(=O)C1CCCN(c2nn3cc(-c4ccc(F)cc4)nc3s2)C1 (stereo not given),106,102
COc1cccc(C(=O)Nc2nc3nc(-c4ccccc4)cc(=O)n3[nH]2)c1,104,107
COc1ccccc1C(=O)NCCSc1c(C)[nH]c2ccccc12,103,104
CCOc1ccc(NC(=O)c2ccc3c(SCC(=O)O)c4c(nc3c2)CCCC4)cc1,100,104
COc1cc(C2C(=O)N(C3CCCCC3)CC(=O)N2C2CCCC2)ccc1OC(C)C (stereo not given),105,110
Cc1cc(C)c(NC(=O)COc2ccc3c(C)cc(=O)oc3c2)c(C)c1,99,100
O=C(Nc1ccccc1C(F)(F)F)C1(S(=O)(=O)c2ccc(Cl)cc2)CC1,108,109
O=C(Nc1cc(-c2nc3ccccc3o2)ccc1Cl)c1cc([N+](=O)[O-])ccc1N1CCOCC1,103,107
CN(C)CCNC(=O)c1ccc2c(=O)n3c(nc2c1)CCCCC3,103,103

# Taken from the results shown, 22 compounds:
SMILES,Polio RdRp inh,Polio RdRp inh intensity
CCN(Cc1ccccc1)C(=O)C1CCN(c2ncnc3c2nc2n3CCCCC2)CC1,108,105
Cc1nc2c(C(=O)NCCc3ccccc3)cnn2c(C)c1Cc1c(F)cccc1Cl,111,110
Cc1cc(C)cc(OCC(=O)NC(Cc2c[nH]c3ccccc23)C(=O)O)c1 (stereo not given),103,105
Cc1ccc(S(=O)(=O)CCC(=O)Nc2ccc(OC(F)(F)F)cc2)cc1,105,105
CCn1nc(C)c2c(-c3ccccc3)cc(=O)n(C(C)C(=O)NCCc3ccc(OC)c(OC)c3)c21 (stereo not given),105,101
COc1ccc(C)cc1NC(=O)C1CCCN(S(=O)(=O)c2ccc3c(c2)CCCN3C(C)=O)C1 (stereo not given),107,103
COCCCNC(=O)c1cn(CC(C)C)c(=O)c2c1c1ccccc1n2C,106,105
CCc1ccccc1NS(=O)(=O)c1cc(Br)cc2c1N(C(=O)C1CC1)CC2,104,106
CCc1ccc2oc(-c3cccc(NC(=O)c4cc5ccccc5o4)c3)nc2c1,105,107
COc1ccc(-c2cn3c(n2)sc2cc(C(=O)Nc4cccc(SC)c4)ccc23)cc1,105,108
CCOC(=O)Cn1c(=O)n(CC2CCCO2)c2nc(-c3ccccc3Cl)nc(C(N)=O)c21 (stereo not given),106,112
COc1ccccc1C(=O)NC1(C(F)(F)F)C(=O)Nc2c1c(=O)[nH]c(=O)n2-c1ccccc1 (stereo not given),104,108
CCCS(=O)(=O)c1nc(S(=O)(=O)c2ccc(C)cc2)c(NCc2ccccc2)s1,104,103
O=c1c2sc3ccccc3c2n(Cc2cccc(C(F)(F)F)c2)c(=O)n1Cc1ccco1,105,107
COc1ccc(CN(C)c2ccc(-c3nc(-c4ccccc4)no3)cc2[N+](=O)[O-])cc1,115,116
COc1ccc(C2c3c(-c4ccccc4)n[nH]c3C(=O)N2c2ccc(C(=O)O)cc2)c(OC)c1 (stereo not given),111,107
COc1ccccc1CNC(=O)C1CCCN(c2nn3cc(-c4ccc(F)cc4)nc3s2)C1 (stereo not given),106,102
COc1cccc(C(=O)Nc2nc3nc(-c4ccccc4)cc(=O)n3[nH]2)c1,104,107
COc1ccccc1C(=O)NCCSc1c(C)[nH]c2ccccc12,103,104
CCOc1ccc(NC(=O)c2ccc3c(SCC(=O)O)c4c(nc3c2)CCCC4)cc1,100,104
COc1cc(C2C(=O)N(C3CCCCC3)CC(=O)N2C2CCCC2)ccc1OC(C)C (stereo not given),105,110
Cc1cc(C)c(NC(=O)COc2ccc3c(C)cc(=O)oc3c2)c(C)c1,99,100

# The list continues.
SMILES,Polio RdRp inh,Polio RdRp inh intensity
Cc1cc(NC(=O)CN2C(=O)c3cccnc3Sc3ccccc32)ccc1Br,104,109
CCCSc1ncc(Cl)c(C(=O)N2CCN(c3ccc(OC)cc3)CC2)n1,109,110
COc1cc(NC(=O)c2nn(C)c3c2CS(=O)(=O)c2ccccc2-3)cc(OC)c1,105,107
Cc1ccc2scc(N3CCN(c4ccc(F)cc4)CC3)c(=O)c2c1,109,109
CC(C)N1CCc2c(sc(NC(=O)c3ccc(S(=O)(=O)N(C)C4CCCCC4)cc3)c2C(N)=O)C1,113,102
Cc1ccc(C)c(CN2C(=O)c3ccccc3Sc3ccc(C(=O)NCc4ccc5c(c4)OCO5)cc32)c1,108,111
COc1ccccc1/C=C/c1nc(C#N)c(N2CCCCC2)o1,111,112
CC1CCC(NC(=O)c2ccc3c(c2)N(Cc2ccccc2F)C(=O)c2ccccc2S3)CC1 (stereo not given),105,101
CCc1ccc(NC(=O)c2cc3c(COC(C)=O)cnc(C)c3oc2=O)cc1,103,97
COc1ccc(NC(=O)c2oc3ccc4c(c3c2C)C(=O)CC(C)(C)O4)cc1OC,115,113
O=C(Nc1cc(-c2nc3ccccc3s2)ccc1Cl)c1cc2ccccc2o1,110,106
Cc1ccc2onc(CC(=O)N3CCN(c4ccc(F)cc4)CC3)c2c1,103,104
CCOc1ccc(NC(=O)c2nc(S(=O)(=O)Cc3ccccc3F)ncc2Cl)cc1,105,96
CCc1nnc2c(Nc3cccc(C(C)=O)c3)nc3ccccc3n12,103,110
COC(=O)Cn1c(=O)c2c(nc3n2CCN3c2ccc(F)cc2)n(C)c1=O,106,108
O=C(Nc1cccc(C(=O)N2CCCCC2)c1)c1nsc2ccccc12,106,112
COc1ccc(Cl)cc1NC(=O)Cn1cc(S(=O)(=O)Cc2cccc(Cl)c2)c2ccccc21,113,111
COC(=O)c1ccc(NC(=O)c2nn(C)c3c2CS(=O)(=O)c2ccccc2-3)cc1,106,111
Cc1ccc(C(=O)N2CCc3cc(CNC(=O)c4ccc(Br)cc4)ccc32)cc1,109,110
CCCn1c2ccccc2c2nnc(SCC(=O)Nc3cccc(C(C)=O)c3)nc21,110,110

# The list goes on (2 carried over from the part before).
SMILES,Polio RdRp inh,Polio RdRp inh intensity
Cc1ccc(C(=O)N2CCc3cc(CNC(=O)c4ccc(Br)cc4)ccc32)cc1,109,110
CCCn1c2ccccc2c2nnc(SCC(=O)Nc3cccc(C(C)=O)c3)nc21,110,110
CCOCCCNC(=O)CN1C(=O)CCn2nc(-c3cccn3C)cc21,104,107
CC(=O)c1cccc(NC(=O)c2cccn(Cc3cccc(C)c3)c2=O)c1,106,99
O=C(NCc1ccco1)c1ccc2c(c1)N(Cc1ccccc1F)C(=O)c1ccccc1S2=O (stereo not given),104,107
Cc1cccc(CNC(=O)CCCN2C(=O)COc3ccc(C)cc32)c1,105,109
Cc1ccn2c(Nc3ccc4c(c3)OCCO4)c(-c3ccccc3O)nc2c1,105,106
CCC(C)NC(=O)CSc1c2c(nc3cc(Cl)ccc13)CCCC2 (stereo not given),102,106
CCOc1ccc(N2CC(C(=O)NCc3nnnn3-c3ccc(C)c(C)c3)CC2=O)cc1 (stereo not given),106,116
CCOC(=O)c1ccc(NC(=O)CC2C(=O)N(c3ccc(F)cc3)C(=O)N2Cc2ccc3c(c2)OCO3)cc1 (stereo not given),107,107
COc1ccc(C)c2sc(N(Cc3cccnc3)C(=O)CCc3ccccc3)nc12,108,102
CCOC(=O)c1ccc(NC(=O)COc2cccc3c(=O)n(C)ccc23)cc1,106,106
COc1ccc(C(=O)NCc2ccc3c(c2)CCN3C(=O)c2ccccc2)cc1,111,109
CCOc1ccccc1CNC(=O)C1CCN(c2nnc(-n3c(C)ccc3C)s2)CC1,109,112
Cc1ccc(CNC(=O)CSc2ncc(S(=O)(=O)c3ccc(Br)cc3)c(=O)[nH]2)cc1,106,110
O=C(Cn1c(=O)c2cccn2c2ccc(F)cc21)Nc1cccc(F)c1,102,107
COc1ccc(Cl)cc1NS(=O)(=O)c1c(C)nc2scc(C)n2c1=O,106,108
CCOC(=O)c1ccc(NC(=O)Cn2c(=O)cc(C)c3c(C)nn(-c4ccc(CC)cc4)c32)cc1,103,105
CCc1ccc(NS(=O)(=O)c2c(-c3ccccc3)csc2C(=O)OC)cc1,104,105
CC(C)NC(=O)C1CCC(Cn2c(=O)c3sccc3n(CC(=O)NCc3ccccc3)c2=O)CC1 (stereo not given),106,112
CCn1c(=O)c2cc(C(=O)Nc3cc(OC)c(OC)c(OC)c3)sc2c2ccccc21,106,113
Cc1ccn2c(Nc3ccc4c(c3)OCO4)c(-c3ccc(C)o3)nc2c1,105,100
CCOCCCn1c(SCC(=O)OCC)nc2c(sc3ccccc32)c1=O,110,107
Cc1ccc2nc(Cl)c3cc(C(=O)N4CCCCC4)sc3c2c1,104,103
Cc1ccc(C(=O)NCC(c2ccc(Cl)cc2)N2CCCCC2)cc1 (stereo not given),105,100
Cc1ccc(NC(=O)c2cnc(N3CCCCC3)c3ccccc23)cc1Cl,104,104
Cc1ccccc1NC(=O)CSc1nc(-c2cccs2)nc2cc(=O)[nH]n12,99,98
CCN(CC)CCCNC(=O)CN1C(=O)CCn2nc(-c3cn(C)c4ccccc34)cc21,105,110
COc1ccc(NS(=O)(=O)c2ccc3c(c2)CCN3C(=O)C2CC2)cc1OC,106,105
COc1ccc(Cn2c(C(=O)O)c(CNCc3ccc(C)o3)c3ccc(OC)cc32)cc1,106,113
COc1ccc(-c2cc(C(F)(F)F)nc(NCCc3ccccc3)n2)cc1OC,103,104
CCc1ccc(NC(=O)c2sc(-n3nc(C)c(CCC(C)C)c3C)nc2C)cc1,110,104
O=C(Nc1cc(-c2ccccc2F)nn1-c1ccccc1)c1ccccc1Br,101,104
CCOC(=O)CC(NC(=O)Cn1nnc(-c2ccc(Cl)cc2)n1)c1ccc(OC)cc1 (stereo not given),107,111
Cc1cccc(-c2nnc(SCC(=O)N3CCCc4ccccc43)o2)c1,102,103
COCCn1c(CNC(=O)c2cccc(C)c2)nc2cccnc21,108,111
